Assay outcomes from PubChem.
TRPML1 ag: qHTS for Agonists of the Human Mucolipin Transient Receptor Potential 1 (TRPML1). activation, % (concentration not given with the values). AID 624414, 2012. TRPML1-expressing cells, Ca2+ dye fluorescence, FDSS; host cell line not named in the record; reference of the full effect not given here. 410,000 tested, 0.12% active; in the data active = activation above about 50%; inconclusive = about 30% to 50%; inactive = below about 30%; further: 0% is about no effect; the text of the record puts the active cut at 80%
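Tet-induced TRPML1-DL cells, 1,500 per well, cultured overnight, were loaded with a no-wash Ca2+ dye for 45–90 min. Calcium fluorescence was recorded on the FDSS for 110 s after compound addition, before the EC80 agonist (4 uM 54-4) was added.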
D2 PAM: Beta-Arrestin HTS for Positive Allosteric Modulators of the Human D2 Dopamine Receptor: Potentiators; 360,000 tested, 0.23% active; DiscoveRx D2 beta-arrestin cells, luminescence, 90 min; 100% = 57 uM dopamine signal; D(2) dopamine receptor (Homo sapiens), P14416; AID 624464, 2012; potentiation, % (concentration not given with the values); active = potentiation of 50% or more; inconclusive = 30% to 50%; inactive = 30% or less;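 further: compound concentration not given in the record; tested on top of an EC20 dose of dopamine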
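PathHunter D2 cells, attached overnight at 37 deg C, received compound in DMSO plus dopamine at EC20 (50 nM final) for 90 min at 37 deg C. Beta-arrestin recruitment was read as luminescence after 1 h with detection reagent at ambient temperature.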
TRPML1 blocker: qHTS for Inhibitors of the Human Mucolipin Transient Receptor Potential 1 (TRPML1); TRPML1-inducible cells, Ca2+ dye fluorescence, FDSS; hits give low values; inhibition of EC80 agonist-evoked calcium signal; activity change, negative = inhibition, % (test concentration not listed); 390,000 tested, 0.02% active; in the data active means activity change below about -50%; inconclusive means about -30% to -50%; inactive means above about -30%;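 further: stimulus is agonist 54-4 at its EC80 concentration; on the % scale 0 is the no-effect control and ±100 the full control effect; compound concentration not given in the record; the text of the record puts the active cut at -80%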
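Tet-induced TRPML1-DL cells loaded with Ca8 no-wash calcium dye were read kinetically on FDSS. Compound addition was followed by EC80 agonist 54-4 (4 uM final); inhibition was read over 110 s.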
Six1-Eya2 blk: qHTS Assay for Inhibitors of the Six1/Eya2 Interaction | Homeobox protein SIX1 (Homo sapiens) + Protein phosphatase EYA2 (Homo sapiens), … | AlphaScreen GST-Six1/His-Eya2 binding, biochemical; hits give low values; control for the full effect not named in the record | activity change, % (no concentration beside the values) | 360,000 tested, 0.56% active | AID 651725, 2012; in the data active = activity change below about -65%; inconclusive = about -30% to -65%; inactive = above about -30%; further: on the % scale 0 is the no-effect control and ±100 the full control effect; compound concentration not given in the record
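Six1/Eya2 binding was read as AlphaScreen signal after compounds were pinned into GST-Six1 plus His-tagged Eya2 (5X stock 250/500 nM) in pH 8.0 Tris/NaCl/TCEP buffer, beads added, then incubated 1 h, 37 C, dark.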
CtBP-E1A blk: qHTS Assay for Inhibitors of the CtBP/E1A Interaction | CtBP / adenovirus E1A interaction (AlphaScreen) | AlphaScreen GST-E1A/His-CtBP binding, 1536-well; hits give low values; control for the full effect not named in the record | activity change, % (concentration not given with the values) | 340,000 tested, 0.49% active; in the data active means activity change below about -65%; inconclusive means about -30% to -65%; inactive means above about -30%; further: on the % scale 0 is the no-effect control and ±100 the full control effect
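GST-E1A and His-tagged CtBP (125 nM each as 5X stock) were preincubated with pin-transferred compound for 2 h at 37 °C in the dark, then glutathione donor and nickel acceptor beads were added for 1 h before AlphaScreen reading.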
TRPV1 PAM: HTS Assay for Compounds that Act as Potentiators of the Vanilloid Receptor 1; 320,000 tested, 0.02% active; Transient receptor potential cation channel subfamily V member 1 (Homo sapiens), Q8NER1; potentiation, % at 8.33 µM; TRPV1-expressing cells, Fluo-8 calcium influx, capsaicin EC20 potentiation; host cell line not named in the record; control for the full effect not named in the record; AID 540277, 2011; active means potentiation above 80%; inconclusive means 30% to 80%; inactive means below 30%; further: 0% is about no effect
Target sequence (Q8NER1 whole entry, looked up): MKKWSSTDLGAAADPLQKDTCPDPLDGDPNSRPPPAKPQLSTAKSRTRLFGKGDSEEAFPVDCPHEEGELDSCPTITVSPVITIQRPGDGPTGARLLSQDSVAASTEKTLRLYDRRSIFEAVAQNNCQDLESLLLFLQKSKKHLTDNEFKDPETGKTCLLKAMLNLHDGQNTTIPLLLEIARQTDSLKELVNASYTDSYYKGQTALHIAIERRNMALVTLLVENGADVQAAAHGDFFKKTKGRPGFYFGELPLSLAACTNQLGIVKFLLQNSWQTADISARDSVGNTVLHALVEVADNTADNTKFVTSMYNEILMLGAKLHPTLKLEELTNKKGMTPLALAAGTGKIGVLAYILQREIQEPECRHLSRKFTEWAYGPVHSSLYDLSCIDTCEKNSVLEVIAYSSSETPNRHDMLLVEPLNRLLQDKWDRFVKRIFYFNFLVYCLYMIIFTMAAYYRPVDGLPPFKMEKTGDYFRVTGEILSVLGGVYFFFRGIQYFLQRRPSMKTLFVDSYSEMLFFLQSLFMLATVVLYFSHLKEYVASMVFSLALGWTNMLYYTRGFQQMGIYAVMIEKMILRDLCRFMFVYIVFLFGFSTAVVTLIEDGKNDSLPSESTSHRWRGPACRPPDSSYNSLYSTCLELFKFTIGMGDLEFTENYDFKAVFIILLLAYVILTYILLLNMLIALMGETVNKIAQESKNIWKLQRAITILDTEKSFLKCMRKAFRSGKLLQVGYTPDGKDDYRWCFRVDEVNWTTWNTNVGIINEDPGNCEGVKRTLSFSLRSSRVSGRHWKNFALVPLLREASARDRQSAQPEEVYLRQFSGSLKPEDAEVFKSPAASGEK
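TRPV1-expressing cells were cultured overnight at 35.5C and loaded with Fluo-8 calcium dye for 40 to 90 min at room temperature. After a 10 s baseline, compound was added and calcium influx was read kinetically for 3 min (ex 480/em 520 nm).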
Active calls of the source: *; ? = inconclusive; . = no result given; & = joins results of further samples. An unsorted share of the library; overall some 0.95% were active at least once.

Preview:
SMILES	TRPML1 ag	D2 PAM	TRPML1 blocker	Six1-Eya2 blk	CtBP-E1A blk	TRPV1 PAM
CS(=O)(=O)Nc1cccc(C2=NN(C(=O)c3ccco3)C(c3ccco3)C2)c1 (stereo not given)	-0.4	28	-16	-13	-5	8
O=C(NCCCN1CCCC1=O)c1cc2c(s1)CCCCC2	.	3	.	3	-3	-2
CN(CCc1ccccn1)C(=O)CCC1CCCN(C(=O)c2c(F)ccc(F)c2F)C1 (stereo not given)	-0.2	-2	-5	0	3	11

This part in full, from the start:
SMILES	TRPML1 ag	D2 PAM	TRPML1 blocker	Six1-Eya2 blk	CtBP-E1A blk	TRPV1 PAM
CS(=O)(=O)Nc1cccc(C2=NN(C(=O)c3ccco3)C(c3ccco3)C2)c1 (stereo not given)	-0.4	28	-16	-13	-5	8
O=C(NCCCN1CCCC1=O)c1cc2c(s1)CCCCC2	.	3	.	3	-3	-2
CN(CCc1ccccn1)C(=O)CCC1CCCN(C(=O)c2c(F)ccc(F)c2F)C1 (stereo not given)	-0.2	-2	-5	0	3	11
Cc1ccc(NC(=O)Cn2cc(C(F)(F)F)cc(Cl)c2=O)cc1S(=O)(=O)N1CCCCC1	0.8	10	1	-11	-1	-3
CC(O)(c1ccc(F)c(F)c1)c1nc(-c2ccccc2)cs1 (stereo not given)	0.1	4	.	8	2	.
Cc1c(N(C(=O)Cc2cccs2)C2(C(=O)NC3CCCC3)CCCCC2)c(=O)n(-c2ccccc2)n1C	0.2	-1	-7	1	-1	3
COc1ccc(S(=O)(=O)NCc2csc(C)n2)cc1	1.0	7	0	2	4	-11
CCC(C)[C@H]1CNCCN1CCc1cccc2ccccc12 (stereo not given in full)	0.5	-75	?	-1	-2	14
CC(NC(=O)CSc1nc2ccccc2n1C)c1ccccc1 (stereo not given)	0.1	-5	2	-10	-7	7
COCCN(C(=O)COc1ccccc1C#N)c1c(N)n(Cc2ccccc2)c(=O)[nH]c1=O	0.7	-10	13	10	1	6
Cc1cc(=O)[nH]c(SCC(=O)Nc2cccc(S(=O)(=O)N3CCOCC3)c2)n1	0.2	-10	0	-2	1	8
CC1(OC(=O)C2CCCC2)C(=O)C=C2C=C3CCCCN3C=C2C1=O (stereo not given)	-0.1	1	-10	19	.	28
O=C(COc1ccc(Cl)cc1)Nc1cc2c3c(c1)CC(=O)N3CCC2	0.3	4	-17	0	0	-21
CCOc1ccc(NC(=O)CN2CCN(CC(=O)Nc3cccc(F)c3)CC2)cc1	1.8	-11	27	-3	-3	26
Cc1ccccc1OCc1nnc2n1CC(C)S2 (stereo not given)	4.1	-1	19	-2	5	4
COc1ccc(-c2cc(C(=O)N3CCCCCC3)c3ccccc3n2)cc1OC	-0.6	-3	8	5	1	.
CCOC(=O)C1CCN(S(=O)(=O)c2cccc(-c3cn4cccc(C)c4n3)c2)CC1	0.1	8	-4	?	?	-4
OCC(CO)(CO)N=Cc1cc(Br)ccc1O	2.3	-18	4	2	2	21
CCOc1ccc(-c2cn(-c3ccc(OC)cc3)c(SC)n2)cc1	1.0	-7	-2	-25	?	12
COC(=O)CSc1nc2c(c(=O)n(C)c(=O)n2C)n1CCCc1ccccc1	-0.4	-11	-6	-2	5	-6
CC1(c2ccc3noc(-c4ccccc4)c3c2)OCCO1	0.1	58*	39	4	4	26
O=C(c1ccc(F)cc1)c1ccc(N2CCCCC2)cc1	4.3	-1	-6	29	31	-15
CC(=O)NCCN1C(=O)S/C(=C\c2cccs2)C1=O	-0.1	-1	8	-2	-9	17
Cc1ccc(NC(=O)CN(C)C(=O)Cn2c(=O)oc3ccccc32)cc1	0.4	-12	9	20	-9	-7
Cc1ccc(C(=O)N2C(CC(=O)Nc3ccc(Cl)cc3)C(=O)NC3CCCCC32)cc1 (stereo not given)	1.4	-11	-22	-4	7	23
C=CCN(CC=C)C(=S)NC(=O)c1ccc(C)c(Br)c1	0.5	-20	17	-1	12	-5
O=C(NC(Nc1nc2ccc([N+](=O)[O-])cc2s1)(C(F)(F)F)C(F)(F)F)c1cccnc1	2.8	-3	-13	5	-19	-26
COc1ccc(OC)c(S(=O)(=O)N2CCCC(C(=O)N3CCCCCC3)C2)c1 (stereo not given)	2.0	-15	27	-1	-6	-2
CCCCn1c(N)c(N(CC(C)C)C(=O)c2c(CC)noc2C)c(=O)[nH]c1=O	0.4	-28	18	5	0	7
COC(=O)c1cc(NC(=O)CN2CCc3cc4c(cc3C2)OCCCO4)cc(C(=O)OC)c1	.	2	.	-2	-1	7

Entries of single compounds as entered above. Screens in order: TRPML1 ag, D2 PAM, TRPML1 blocker, Six1-Eya2 blk, CtBP-E1A blk, TRPV1 PAM
COc1ccc(OC)c(S(=O)(=O)N2CCCC(C(=O)N3CCCCCC3)C2)c1 (stereo not given) is entered as 2.0, -15, 27, -1, -6, -2
Cc1ccc(C(=O)N2C(CC(=O)Nc3ccc(Cl)cc3)C(=O)NC3CCCCC32)cc1 (stereo not given) is entered as 1.4, -11, -22, -4, 7, 23
O=C(NC(Nc1nc2ccc([N+](=O)[O-])cc2s1)(C(F)(F)F)C(F)(F)F)c1cccnc1 is entered as 2.8, -3, -13, 5, -19, -26
CC(=O)NCCN1C(=O)S/C(=C\c2cccs2)C1=O is entered as -0.1, -1, 8, -2, -9, 17
CCOC(=O)C1CCN(S(=O)(=O)c2cccc(-c3cn4cccc(C)c4n3)c2)CC1 is entered as 0.1, 8, -4, ?, ?, -4

Continued:
SMILES	TRPML1 ag	D2 PAM	TRPML1 blocker	Six1-Eya2 blk	CtBP-E1A blk	TRPV1 PAM
C/C(=N/NC(=O)c1ccc(Cl)s1)c1ccc(NC(=O)COc2ccc(Cl)cc2)cc1	2.4	-19	12	0	4	-10
COc1cccc(C(=O)N2CCN(Cc3ccc(OC)cc3OC)CC2)c1	-0.5	-12	-1	3	0	-12
CC(C)NC(=O)CC(=O)N/N=C/c1cccs1	-0.3	-8	9	7	-4	-2
COc1cccc(-c2cc(C(=O)Nc3c(C)n(C)n(-c4ccccc4)c3=O)no2)c1	-0.2	-6	17	0	3	-2
O=C(COc1ccc(S(=O)(=O)N2CCOCC2)cc1)N1CCc2ccccc2C1	-1.2	-13	23	-1	.	19
CN1C(=O)CS/C1=N\NC(=O)COc1cccc2cccnc12	1.8	-5	-3	-1	0	3
CC(C)c1cccc(-c2csc(C(O)c3ccc(F)cc3)n2)c1 (stereo not given)	0.6	0	.	7	12	.
CC(C)(C)C(=O)CCN1C(=O)C2(OCCO2)c2ccccc21	1.5	8	6	-2	7	11
CC(=O)N1CC2(C)CN(C(C)=O)CC(C)(C1)C2	-0.2	-9	-9	1	6	10
CC(=O)Nc1cccc(-c2ccnc3c2CC(C)(C(=O)NCc2cccc(Cl)c2)O3)c1 (stereo not given)	-0.4	-2	.	-7	-10	.
O=C(CN1C(=O)NC2(CCOc3ccccc32)C1=O)c1ccc(F)c(F)c1 (stereo not given)	2.6	-2	13	-7	-4	-5
COc1ccc(-c2nn(-c3ccccc3)cc2C(=O)Nc2cccc(C(=O)O)c2)cc1[N+](=O)[O-]	.	-5	.	7	.	8
O=C(/C=C/c1ccco1)c1ccc(NC(=O)C23CC4CC(CC(C4)C2)C3)cc1	1.3	-6	-16	-3	6	-5
Cc1ccc(CC2S/C(=N/N=C/c3ccco3)NC2=O)cc1 (stereo not given)	1.7	2	2	6	0	-3
O=C(NC1CCSc2ccccc21)c1ccccc1Cl (stereo not given)	-0.2	-5	2	4	4	-9
N#Cc1c(NC(=O)C2CC=CCC2C(=O)O)sc2c1CCCCCC2 (stereo not given)	-0.1	2	-6	2	11	25
Cc1ccnc(NC(=O)c2cc([N+](=O)[O-])cc([N+](=O)[O-])c2)c1	-0.2	-16	-13	-8	2	-2
Cc1ccc(NC(=O)c2ccc(OC(=S)N3CCOCC3)cc2)cc1	-0.1	-4	4	2	3	-6
FC(F)(F)c1ccccc1NC(=S)NN=C1CCCCCC1	-0.2	-8	-9	-12	-12	0
COC(=O)C(/C=N/O)NC(=O)c1ccccc1 (stereo not given)	-0.1	-13	49	2	3	-7
CCCOC(=S)N/C(=N\S(=O)(=O)c1ccccc1)c1ccccc1	-0.6	-11	6	2	2	6
O=C(NCC1CCCO1)C1C2C=CC3(CN(Cc4cccs4)C(=O)C13)O2 (stereo not given)	0.2	-15	-3	3	5	-11
COCCNS(=O)(=O)c1ccc(SC)cc1	0.3	-4	3	5	2	4
O=C(O)c1cc(N=Nc2c(O)[nH]c3ccc([N+](=O)[O-])cc23)ccc1Cl	0.7	-12	-1	-25	.	0
COc1cc(Cl)ccc1OC1(C)CCN(Cc2cccc(OC)c2OC)C1 (stereo not given)	-1.0	-9	.	-14	-10	.
Cc1ccc(/C=N/NC(=O)CNC(=O)c2ccc(S(=O)(=O)N(C)C)cc2)cc1	-0.5	-2	-2	9	2	-8
CCc1nc2c(OCC(=O)c3ccc(F)cc3)cccn2c1N(C)C(=O)c1cccs1	-0.6	0	.	-6	1	.
NC(=O)c1ccsc1NC(=O)CN1C(=O)NC2(CCCC2)C1=O	1.3	-2	-8	22	0	.
CC(=O)N1c2ccc(S(=O)(=O)N(C)CC(=O)NC(C)c3ccccc3)cc2CC1C (stereo not given)	-1.1	-9	-15	3	0	0
COc1cc(/C=N/NC(=O)c2cccc([N+](=O)[O-])c2)ccc1OCc1ccc(C)cc1	0.7	-1	6	5	6	.
O=C(NCCS(=O)(=O)N1CCN(c2ccccc2F)CC1)c1cccs1	0.2	-12	1	2	-1	-16
CCOc1ccc(NC(=O)CCC(=O)N2CCSc3ccccc32)cc1	0.5&-0.2	5	-2&8	-5	0	8
